High-throughput results deposited in PubChem by Broad Institute.
A1 apoptosis 2: A1 inhibition read as caspase activation; MEF A1-2A-BIM cells, caspase-Glo luminescence, 3 h; percent of clofoctol response, DMSO zero; caspase activation, % (test concentration not listed); 24,000 tested, under 10 active; in the data active means caspase activation above about 5.9%;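 further: wells of about 30 µL received 50 nL stock; the first replicate is given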
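Material: A1-2A-BIM-expressing MEF cells. Buffer or medium: RPMI-1640 plus 10% FBS. Incubation: cells settled overnight, compound exposure 3 h at 37 °C, 5% CO2. Signal: Caspase-Glo 3/7 luminescence, 1 h at room temperature.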
Active calls of the source: *. A portion of the library; the hit share may differ from the screen's.

SMILES | A1 apoptosis 2
Cc1ccc(S(=O)(=O)N(C)C[C@@H]2OCCCC[C@H](C)Oc3ccc(NC(=O)CCCCCC(=O)Nc4ccccc4N)cc3C(=O)N([C@H](C)CO)C[C@@H]2C)cc1 | 0.8
C[C@H](CO)N1C[C@H](C)[C@H](CN(C)S(=O)(=O)c2ccccc2)Oc2c(NS(=O)(=O)c3ccc(Cl)cc3)cccc2C1=O | -0.1
Cc1ccc(S(=O)(=O)Nc2ccc3c(c2)CC(=O)N([C@@H](C)CO)C[C@@H](C)[C@@H](CN(C)CC2CCCCC2)O3)cc1 | 0.3
C[C@@H]1CCCCO[C@@H](CN(C)C(=O)Nc2cccc3ccccc23)[C@H](C)CN([C@@H](C)CO)C(=O)c2cc(NS(=O)(=O)c3cccs3)ccc2O1 | -0.5
C[C@H](CO)N1C[C@H](C)[C@H](CN(C)Cc2ccc(C(=O)O)cc2)Oc2ccc(NS(C)(=O)=O)cc2CC1=O | 0.4
Cc1noc(C)c1NC(=O)N(C)C[C@H]1OCCCC[C@H](C)Oc2ccc(NC(=O)NC3CCCCC3)cc2C(=O)N([C@H](C)CO)C[C@@H]1C | 0.1
C[C@@H]1CN([C@H](C)CO)C(=O)Cc2cc(NS(=O)(=O)c3ccccc3)ccc2O[C@H]1CN(C)S(=O)(=O)c1cccs1 | -0.5
C[C@H]1CN([C@@H](C)CO)C(=O)c2cc(NC(=O)Cc3cn(C)c4ccccc34)ccc2O[C@@H]1CN(C)C(=O)Nc1ccccc1 | 0.7
C[C@H]1CN([C@@H](C)CO)C(=O)c2cc(N(C)C)ccc2O[C@@H]1CN(C)C | -0.4
Cc1noc(C)c1NC(=O)N(C)C[C@@H]1Oc2c(NC(=O)c3cnccn3)cccc2C(=O)N([C@@H](C)CO)C[C@@H]1C | 0.6

A different layout for some results above:
SMILES	A1 apoptosis 2
Cc1ccc(S(=O)(=O)N(C)C[C@@H]2OCCCC[C@H](C)Oc3ccc(NC(=O)CCCCCC(=O)Nc4ccccc4N)cc3C(=O)N([C@H](C)CO)C[C@@H]2C)cc1	0.8
C[C@H](CO)N1C[C@H](C)[C@H](CN(C)S(=O)(=O)c2ccccc2)Oc2c(NS(=O)(=O)c3ccc(Cl)cc3)cccc2C1=O	-0.1
Cc1ccc(S(=O)(=O)Nc2ccc3c(c2)CC(=O)N([C@@H](C)CO)C[C@@H](C)[C@@H](CN(C)CC2CCCCC2)O3)cc1	0.3
C[C@@H]1CCCCO[C@@H](CN(C)C(=O)Nc2cccc3ccccc23)[C@H](C)CN([C@@H](C)CO)C(=O)c2cc(NS(=O)(=O)c3cccs3)ccc2O1	-0.5

Carrying on.
SMILES | A1 apoptosis 2
Cc1ccc(S(=O)(=O)N(C)C[C@H]2OCCCC[C@@H](C)Oc3ccc(NC(=O)CCC(F)(F)F)cc3C(=O)N([C@H](C)CO)C[C@@H]2C)cc1 | -0.9
CC(C)NC(=O)Nc1ccc2c(c1)CC(=O)N([C@@H](C)CO)C[C@@H](C)[C@@H](CN(C)S(=O)(=O)c1ccc(F)cc1)O2 | 0.7
[N-]=[N+]=Nc1ccccc1C[C@]1(C(=O)NCCN2CCOCC2)N=C(c2ccc(OCCCO)cc2)O[C@H]1c1ccccc1 | 0.1
C[C@@H]1CN([C@@H](C)CO)C(=O)Cc2cc(NC(=O)Cc3ccccc3)ccc2O[C@H]1CN(C)Cc1ccccc1 | -2.2
C[C@H]1CN([C@@H](C)CO)C(=O)c2cccc(NC(=O)C3CCOCC3)c2O[C@@H]1CN(C)S(=O)(=O)c1ccccc1 | 0.3
C[C@@H]1CCCCO[C@@H](CN(C)C(=O)c2ccccc2)[C@@H](C)CN([C@H](C)CO)C(=O)c2cc(NS(=O)(=O)c3ccc(Cl)cc3)ccc2O1 | -0.7
C[C@@H]1CN([C@@H](C)CO)C(=O)Cc2cc(NC(=O)Nc3ccc4c(c3)OCO4)ccc2O[C@@H]1CN(C)C(=O)Nc1cccc2ccccc12 | -0.7
O=C(CCCCCCC(=O)Nc1ccccc1O)N/N=C/c1ccc(Br)s1 | 0.5
Cc1noc(C)c1NC(=O)N(C)C[C@@H]1Oc2ccc(NC(=O)CCCN(C)C)cc2C(=O)N([C@H](C)CO)C[C@H]1C | -1.1
C[C@H](CO)N1C[C@H](C)[C@@H](CN(C)S(=O)(=O)c2ccccc2)Oc2ccc(NS(=O)(=O)c3ccc(F)cc3)cc2CC1=O | -0.6

A few values from the results shown.
In A1 apoptosis 2, C[C@@H]1CCCCO[C@@H](CN(C)C(=O)c2ccccc2)[C@@H](C)CN([C@H](C)CO)C(=O)c2cc(NS(=O)(=O)c3ccc(Cl)cc3)ccc2O1 has -0.7
In A1 apoptosis 2, C[C@@H]1CN([C@@H](C)CO)C(=O)Cc2cc(NC(=O)Cc3ccccc3)ccc2O[C@H]1CN(C)Cc1ccccc1 has -2.2

Carrying on:
SMILES | A1 apoptosis 2
C[C@@H]1CN([C@H](C)CO)C(=O)c2cc(NS(C)(=O)=O)ccc2O[C@@H](C)CCCCO[C@H]1CN(C)C(=O)Nc1ccc2c(c1)OCO2 | -1.2
C[C@@H]1CN([C@@H](C)CO)C(=O)c2cccc(NC(=O)Nc3ccc(C(F)(F)F)cc3)c2O[C@H]1CN(C)C(=O)NC1CCCCC1 | -0.6
Cc1ccc(S(=O)(=O)N(C)C[C@H]2OCCCC[C@@H](C)Oc3ccc(NS(=O)(=O)c4c(C)noc4C)cc3C(=O)N([C@@H](C)CO)C[C@@H]2C)cc1 | -0.3
C[C@@H]1CN([C@H](C)CO)C(=O)c2cccc(NC(=O)c3ccncc3)c2O[C@H]1CN(C)Cc1ccncc1 | 0.9
C[C@@H]1CN([C@@H](C)CO)C(=O)c2cccc(NS(C)(=O)=O)c2O[C@@H]1CN(C)C | 1.0
C[C@@H]1CN([C@@H](C)CO)C(=O)c2cc(N(C)C)ccc2O[C@@H](C)CCCCO[C@@H]1CN(C)C(=O)Nc1cccc2ccccc12 | 1.8
C[C@H]1CN([C@@H](C)CO)C(=O)c2cc(NC(=O)Nc3ccc4c(c3)OCO4)ccc2O[C@H]1CN(C)CC1CCCCC1 | -0.1
C[C@@H]1CCCCO[C@H](CN(C)C(=O)Cc2ccccc2)[C@@H](C)CN([C@@H](C)CO)C(=O)c2cc(NC(=O)Nc3ccc(C(F)(F)F)cc3)ccc2O1 | 0.6
C[C@@H]1CN([C@@H](C)CO)C(=O)c2cc(NS(=O)(=O)c3ccc(Cl)cc3)ccc2O[C@H]1CN(C)Cc1ccc(Cl)c(Cl)c1 | 1.3
C[C@H](CO)N1C[C@H](C)[C@@H](CN(C)Cc2ccc(C(=O)Nc3ccccc3N)cc2)Oc2ccc(NS(=O)(=O)c3ccc(F)cc3)cc2C1=O | 0.4
COc1ccc(NC(=O)Nc2ccc3c(c2)CC(=O)N([C@H](C)CO)C[C@@H](C)[C@@H](CN(C)Cc2ccncc2)O3)cc1 | -0.7
C[C@@H]1CN([C@H](C)CO)C(=O)c2cccc(NS(=O)(=O)c3cn(C)cn3)c2O[C@H]1CN(C)C(=O)Nc1cccc2ccccc12 | 0.9
C[C@H](CO)N1C[C@H](C)[C@H](CN(C)S(C)(=O)=O)Oc2ccc(NS(=O)(=O)c3cccs3)cc2C1=O | 0.2
C[C@H]1CN([C@@H](C)CO)C(=O)Cc2cc(NC(=O)Cc3cn(C)c4ccccc34)ccc2O[C@H]1CN(C)C | -1.1
COC(=O)c1cn(CC(=O)N2CCC3(CC2)C(=O)NCN3c2ccccc2)nn1 | -0.2
C[C@@H]1CCCCO[C@H](CN(C)C(=O)C2CCCCC2)[C@@H](C)CN([C@H](C)CO)C(=O)c2cc(N(C)C)ccc2O1 | 0.8
Cc1ccc(S(=O)(=O)Nc2ccc3c(c2)C(=O)N([C@@H](C)CO)C[C@@H](C)[C@H](CN(C)C(=O)c2ccccc2)OCCCC[C@@H](C)O3)cc1 | -1.2
COc1ccc(C#Cc2cnc3c(c2)C(=O)N([C@H](C)CO)C[C@H](C)[C@H](CN(C)S(=O)(=O)c2cccs2)O3)cc1OC | -0.1
C[C@@H]1CN([C@@H](C)CO)C(=O)c2cc(NC(=O)Nc3cccc4ccccc34)ccc2O[C@@H](C)CCCCO[C@@H]1CN(C)CC1CCCCC1 | -1.3
COc1ccc(S(=O)(=O)Nc2cccc3c2O[C@H](CN(C)Cc2ccc(C(=O)Nc4ccccc4N)cc2)[C@H](C)CN([C@@H](C)CO)C3=O)cc1 | -0.1
Cc1noc(C)c1NC(=O)Nc1ccc2c(c1)C(=O)N([C@H](C)CO)C[C@H](C)[C@@H](CN(C)C)OCCCC[C@@H](C)O2 | -1.3
CCO[C@@H]1OC(C(=O)N2CCN(Cc3ccccc3)CC2)=C[C@H](c2ccc3c(c2)OCO3)[C@H]1CCCO | 0.0
C[C@H]1CN([C@@H](C)CO)C(=O)c2cccc(NC(=O)c3ccncc3)c2O[C@H]1CN(C)Cc1ccc(Oc2ccccc2)cc1 | -0.7
C[C@@H]1CN([C@@H](C)CO)C(=O)c2cc(NC(=O)NC3CCCCC3)ccc2O[C@@H]1CN(C)Cc1ccc2c(c1)OCO2 | -0.3
C[C@H](CO)N1C[C@H](C)[C@H](CN(C)C(=O)Nc2ccccc2)OCCCC[C@H](C)Oc2ccc(NC(=O)Cc3ccccc3)cc2C1=O | 0.0
COc1ccc([Si](C)(C)[C@@H]2[C@@H](CCn3cc(CCO)nn3)O[C@]3(C(=O)N(Cc4ccc(N5CCOC5=O)cc4)c4ccccc43)[C@H]2C)cc1 | -0.3
COc1ccc(CN(C)C[C@H]2Oc3ccc(NC(=O)Nc4ccc(OC)cc4)cc3CC(=O)N([C@@H](C)CO)C[C@H]2C)cc1 | -1.0
COc1ccc(S(=O)(=O)N(C)C[C@H]2Oc3c(NC(=O)c4cnccn4)cccc3C(=O)N([C@H](C)CO)C[C@@H]2C)cc1 | -0.2
C[C@H](CO)N1C[C@H](C)[C@@H](CN(C)C(=O)CCC(F)(F)F)OCCCC[C@H](C)Oc2ccc(NS(=O)(=O)c3ccccc3)cc2C1=O | 1.1
C[C@@H]1CN([C@@H](C)CO)C(=O)c2cc(NC(=O)c3ccccc3)ccc2O[C@@H](C)CCCCO[C@@H]1CN(C)Cc1ccc(C(=O)O)cc1 | -0.8
C[C@H]1CN([C@@H](C)CO)C(=O)c2cccc(NS(=O)(=O)c3ccccc3)c2O[C@H]1CN(C)Cc1ccncc1 | -1.2
C[C@@H]1CN([C@H](C)CO)C(=O)c2cccc(NS(=O)(=O)c3ccc(F)cc3)c2O[C@H]1CN(C)C | -0.3
C[C@@H]1CCCCO[C@H](CN(C)C(=O)C2CCCCC2)[C@H](C)CN([C@@H](C)CO)C(=O)c2cc(NC(=O)c3ccncc3)ccc2O1 | -0.5
COc1ccc(S(=O)(=O)N(C)C[C@@H]2Oc3ccc(NS(=O)(=O)c4c(C)noc4C)cc3C(=O)N([C@H](C)CO)C[C@H]2C)cc1 | -0.4
C[C@H]1CN([C@@H](C)CO)C(=O)c2cc(NC(=O)Cn3cnnn3)ccc2O[C@H]1CN(C)CC1CC1 | 0.9
C[C@H](CO)N1C[C@H](C)[C@H](CN(C)CC2CCCCC2)Oc2ccc(NS(=O)(=O)c3ccc(Cl)cc3)cc2CC1=O | 0.7
C[C@H](CO)N1C[C@H](C)[C@H](CN(C)C(=O)C2CCCCC2)OCCCC[C@H](C)Oc2ccc(NC(=O)NC3CCCCC3)cc2C1=O | 0.1
C[C@H]1CCCCO[C@H](CN(C)C(=O)Cc2ccccc2)[C@@H](C)CN([C@@H](C)CO)C(=O)c2cc(NS(C)(=O)=O)ccc2O1 | -0.1
C[C@@H]1CN([C@H](C)CO)C(=O)c2cc(NC(=O)c3ccncc3)ccc2O[C@@H](C)CCCCO[C@@H]1CN(C)Cc1ccccc1 | -1.2
Cc1ccc(S(=O)(=O)N(C)C[C@H]2Oc3ccc(NC(=O)Cc4ccccc4)cc3C(=O)N([C@H](C)CO)C[C@@H]2C)cc1 | -0.3

Entries listed so far that have a COOH group:
SMILES | A1 apoptosis 2
C[C@H](CO)N1C[C@H](C)[C@H](CN(C)Cc2ccc(C(=O)O)cc2)Oc2ccc(NS(C)(=O)=O)cc2CC1=O | 0.4
C[C@@H]1CN([C@@H](C)CO)C(=O)c2cc(NC(=O)c3ccccc3)ccc2O[C@@H](C)CCCCO[C@@H]1CN(C)Cc1ccc(C(=O)O)cc1 | -0.8

More entries follow.
SMILES | A1 apoptosis 2
COc1ccc(S(=O)(=O)Nc2ccc3c(c2)C(=O)N([C@@H](C)CO)C[C@@H](C)[C@H](CN(C)Cc2ccc(C(F)(F)F)cc2)O3)cc1 | -1.1
C[C@H]1CN([C@@H](C)CO)C(=O)Cc2cc(NC(=O)Nc3ccccc3)ccc2O[C@H]1CN(C)S(C)(=O)=O | 0.2
Cc1noc(C)c1NC(=O)Nc1cccc2c1O[C@H](CN(C)C(=O)Nc1ccc(C(F)(F)F)cc1)[C@@H](C)CN([C@H](C)CO)C2=O | 0.4
C[C@@H]1CN([C@H](C)CO)C(=O)Cc2cc(N(C)C)ccc2O[C@@H]1CN(C)Cc1ccccc1 | 0.3
C[C@H](CO)N1C[C@H](C)[C@H](CN(C)Cc2ccc(C(=O)O)cc2)Oc2ccc(NC(=O)c3ccncc3)cc2C1=O | 0.4
Cc1noc(C)c1NC(=O)N(C)C[C@H]1Oc2ccc(NC(=O)Nc3ccc(F)cc3)cc2CC(=O)N([C@H](C)CO)C[C@H]1C | 1.4
Cc1ccc(S(=O)(=O)Nc2ccc3c(c2)C(=O)N([C@@H](C)CO)C[C@@H](C)[C@H](CN(C)S(=O)(=O)c2ccc(C)cc2)OCCCC[C@@H](C)O3)cc1 | -0.4
C[C@@H]1CN([C@H](C)CO)C(=O)c2cc(NC(=O)c3ccccc3)ccc2O[C@@H](C)CCCCO[C@H]1CN(C)S(C)(=O)=O | -0.4
C[C@@H]1CCCCO[C@@H](CN(C)S(=O)(=O)c2ccc(F)cc2)[C@@H](C)CN([C@H](C)CO)C(=O)c2cc(NC(=O)CCCCCC(=O)Nc3ccccc3N)ccc2O1 | 1.5
